Screening results deposited in PubChem by several laboratories.
YopH inh: inhibitors of Yersinia enterocolitica YopH tyrosine phosphatase; fluorescence Ex485/Em525; inhibition, %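 (about 10 µM by stock and volumes)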; 140,000 tested, 0.16% active; AID 898;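 active means inhibition of 50% or more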;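 further: controls were vehicle for no effect and minimum signal wells for full effect; inactives centre near -20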
Arbovirus anti: arbovirus infection inhibition | inhibition, % at 10 µM | arbovirus infection cell-based antiviral screen | 200,000 tested, 0.37% active | AID 1251;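 active means inhibition from about 30%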;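 further: bluetongue infection of BSR cells; cell survival read as ATP light after 72 h; 0% = infected wells without compound and 100% = uninfected wells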
Mtb growth: M. tuberculosis H37Rv growth inhibitors, H37Rv strain (AID 1626). M. tuberculosis H37Rv growth inhibition; higher % means a stronger effect. 220,000 tested, 0.95% active. one-dose inhibition, % at 10 µM; IC50 in µM for titrated hits;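 active means confirmed in a dose series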;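 further: bacteria incubated seven days before Alamar blue readout; 0% = bacteria only wells and 100% = bacteria with antibiotic wells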
Mtb betalactam: beta-lactam sensitization of Mtb H37Rv. M. tuberculosis H37Rv growth with meropenem, percent inhibition; hits of this screen are not shown here. inhibition, % at 25 µM. 330,000 tested, 0.27% active. AID 434955;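 active means about 74% or more and at least 40 points above the plate without the antibiotic, then above 30% in a dose series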;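 further: growth measured after seven days incubation then overnight dye step; 0% = bacteria only wells and 100% = bacteria with antibiotic; twin plates without the antibiotic show which effects depend on it; some results filed as inactive read as strong as hits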
RecA intein inh: Mtb RecA intein splicing inhibition. P9WHJ3. cell-free RecA intein splicing, fluorescence. inhibition, %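 (about 9 µM by stock and volumes)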. 290,000 tested, 0.75% active; in the data active means inhibition above about 30%;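 further: 0% = vehicle wells and 100% = reference inhibitor control wells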
Target sequence (P9WHJ3 whole entry, looked up): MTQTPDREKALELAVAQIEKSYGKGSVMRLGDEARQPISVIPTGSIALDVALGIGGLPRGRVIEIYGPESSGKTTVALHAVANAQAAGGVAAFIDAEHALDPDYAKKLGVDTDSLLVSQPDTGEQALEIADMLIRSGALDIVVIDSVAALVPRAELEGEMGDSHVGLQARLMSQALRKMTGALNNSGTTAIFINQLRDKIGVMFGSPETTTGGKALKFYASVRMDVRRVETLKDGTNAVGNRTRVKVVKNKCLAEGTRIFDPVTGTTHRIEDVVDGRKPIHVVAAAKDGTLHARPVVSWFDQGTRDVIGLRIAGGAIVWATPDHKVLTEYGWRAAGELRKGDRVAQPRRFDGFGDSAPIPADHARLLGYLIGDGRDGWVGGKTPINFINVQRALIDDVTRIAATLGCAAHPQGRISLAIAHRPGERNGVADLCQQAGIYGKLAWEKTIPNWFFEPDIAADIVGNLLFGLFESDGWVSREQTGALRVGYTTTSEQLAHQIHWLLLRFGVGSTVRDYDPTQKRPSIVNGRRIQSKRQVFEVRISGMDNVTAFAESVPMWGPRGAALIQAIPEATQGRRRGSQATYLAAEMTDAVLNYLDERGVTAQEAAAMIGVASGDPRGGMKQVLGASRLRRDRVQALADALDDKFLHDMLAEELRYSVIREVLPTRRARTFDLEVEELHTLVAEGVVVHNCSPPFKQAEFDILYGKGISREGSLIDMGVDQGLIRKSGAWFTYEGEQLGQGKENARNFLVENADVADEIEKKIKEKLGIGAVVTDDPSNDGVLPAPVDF
Arbovirus anti repeat: second read-out of Arbovirus anti, no call of its own (marks repeat the call); inhibition, %; measured here: 10K subset replicate screen; many hits read low in the repeat;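 first of two repeat runs on a subset; 0% = infected and 100% = uninfected wells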
Active calls of the source: *. These rows are one share of the data; rates above refer to the full screens.

What do the screens show for `CCN(CC)S(=O)(=O)c1cccc(C(=O)N/N=C/c2cccc(O)c2O)c1`?
YopH inh: -42.8; Arbovirus anti: -31.9; Mtb growth: -5.6%; Mtb betalactam: 4.9; RecA intein inh: -6.0

Results for CCN(CC)C(=O)C1CCCN(C(=O)Nc2ccc(NC(=O)N3CCCC(C(=O)N(CC)CC)C3)cc2)C1 (centres undefined) ?
YopH inh: -27.1; Arbovirus anti: -6.7; Mtb growth: -12.2%; Mtb betalactam: 2.6; RecA intein inh: -0.8

What do the screens show for `CCCCOC(=O)C[N+](C)(C)CCOC1CC2CCC1(C)C2(C)C` (centres undefined)?
YopH inh: -25.7; Arbovirus anti: 4.8; Mtb growth: 7.9%; Mtb betalactam: -2.1; RecA intein inh: 4.6

Results for CCCC(=O)Nc1c2c(nn1-c1ccccc1)CSC2 ?
Mtb betalactam: -6.8; RecA intein inh: -3.8

Results for CCN(CC)C(=O)COc1ccc(S(=O)(=O)N2CCCC2)cc1 ?
Mtb betalactam: 3.6; RecA intein inh: -0.5

Results for c1ccc(NC2=NCCCS2)cc1 ?
Mtb betalactam: -2.3; RecA intein inh: 2.6

What do the screens show for `CSc1ccc(Cl)c(C(=O)Nc2ccc(Cl)cn2)c1`?
Arbovirus anti: -17.9; Mtb growth: -0.5%; Mtb betalactam: -4.2; RecA intein inh: 0.2

How did O=C(Cc1csc(-c2ccccc2)n1)NCc1cccs1 do in these assays?
Arbovirus anti: 12.4; Mtb growth: 2.6%; Mtb betalactam: -2.6; RecA intein inh: 1.3

What do the screens show for `NNS(=O)(=O)c1ccc2c(c1)Cc1cc(S(=O)(=O)NN)ccc1-2`?
Mtb betalactam: 2.2; RecA intein inh: 2.5

Results for Cc1ccc(C(=O)NCCc2ccccc2)cc1 ?
Mtb betalactam: 0.1; RecA intein inh: -5.6

Results for COc1cccc(CNCCSc2nnnn2C)c1 ?
YopH inh: -37.3; Arbovirus anti: 1.5; Mtb growth: 6.2%; Mtb betalactam: -0.6; RecA intein inh: -1.6

How did COc1ccc(N2CC(C)Cn3c2nc2c3c(=O)n(Cc3ccc(F)cc3)c(=O)n2C)c(OC)c1 (centres undefined) do in these assays?
YopH inh: -25.2; Arbovirus anti: -8.6; Mtb growth: -7.2%; Mtb betalactam: 7.0; RecA intein inh: 0.3

What do the screens show for `C=CCc1ccccc1OCCOc1ccc([N+](=O)[O-])cc1/C=N/NC(N)=O`?
Arbovirus anti: -4.7; Mtb growth: -3.9%; Mtb betalactam: -7.9; RecA intein inh: -1.1

How did O=C1CCC/C(=N\NC(=O)c2ccc(CSc3cccc4cccnc34)cc2)C1 do in these assays?
Arbovirus anti: 1.9; Mtb growth: 2.4%; Mtb betalactam: 15.5; RecA intein inh: -0.5

How did COc1ccccc1/C=C(/C(=O)OCC(=O)Nc1cc(C)ccc1C)c1ccccc1 do in these assays?
YopH inh: -28.7; Arbovirus anti: -3.7; Mtb growth: 5.7%; Mtb betalactam: 1.2; RecA intein inh: 0.6

Results for CC(=O)Nc1ccc(NC(=O)c2ccco2)cc1 ?
YopH inh: -16.3; Arbovirus anti: -0.7; Mtb growth: -1.4%; Mtb betalactam: -5.6; RecA intein inh: -1.4; Arbovirus anti repeat: 2.6

How did CN(CC(=O)NCc1ccco1)S(=O)(=O)c1ccc2c(c1)c(=O)n(C)c(=O)n2C do in these assays?
Mtb growth: 7.9%; Mtb betalactam: -5.1; RecA intein inh: -9.9

Results for Cc1c(Br)c(C(F)(F)F)nn1CC(=O)NCCCn1ccnc1 ?
Arbovirus anti: 11.0; Mtb growth: -7.7%; Mtb betalactam: -7.5; RecA intein inh: -0.7

Results for Cc1ccc(C(C[N+](=O)[O-])c2c(N)n(C)c(=O)n(C)c2=O)cc1 (centres undefined) ?
Mtb growth: 1.9%; Mtb betalactam: 97.8; RecA intein inh: -2.8

Results for Cc1cccnc1NC(=O)c1ccc(S(=O)(=O)N2CCC(C)CC2)cc1 ?
Mtb betalactam: -3.7; RecA intein inh: -2.1

Results for S=c1[nH]nc(-c2ccccn2)n1/N=C/c1cccc(Cl)c1 ?
Arbovirus anti: -3.3; Mtb growth: -3.2%; Mtb betalactam: -4.3; RecA intein inh: -1.1

How did COc1ccccc1N1CCN(CC(=O)Nc2sccc2C#N)CC1 do in these assays?
YopH inh: -10.0; Arbovirus anti: 1.9; Mtb growth: 5.0%; Mtb betalactam: -4.8; RecA intein inh: 1.1

Results for COc1ccc(S(=O)(=O)NCC(=O)N(CC(=O)NCC2CCCO2)c2cc(C)ccc2C)cc1 (centres undefined) ?
YopH inh: 9.8; Arbovirus anti: 8.6; Mtb growth: -5.6%; Mtb betalactam: -2.7; RecA intein inh: -0.8

What do the screens show for `Oc1ccccc1C=NCCCCCCN=Cc1ccccc1O`?
Mtb growth: -3.2%; Mtb betalactam: -6.5; RecA intein inh: 2.7

Retrieved by compound from above (three):
Results for Cc1cccnc1NC(=O)c1ccc(S(=O)(=O)N2CCC(C)CC2)cc1 ?
Mtb betalactam: -3.7; RecA intein inh: -2.1

Results for S=c1[nH]nc(-c2ccccn2)n1/N=C/c1cccc(Cl)c1 ?
Arbovirus anti: -3.3; Mtb growth: -3.2%; Mtb betalactam: -4.3; RecA intein inh: -1.1

Results for COc1ccc(S(=O)(=O)NCC(=O)N(CC(=O)NCC2CCCO2)c2cc(C)ccc2C)cc1 (centres undefined) ?
YopH inh: 9.8; Arbovirus anti: 8.6; Mtb growth: -5.6%; Mtb betalactam: -2.7; RecA intein inh: -0.8

Later entries
What do the screens show for `O=C(O)c1ccc(Cl)c(S(=O)(=O)N(Cc2ccccc2)c2ccccc2Cl)c1`?
Mtb betalactam: 4.2; RecA intein inh: 8.3

Results for NCc1ccccc1COc1ccccc1 ?
YopH inh: -41.2; Arbovirus anti: 9.0; Mtb growth: -7.6%; Mtb betalactam: -0.3; RecA intein inh: 1.4

How did CSc1ccc(C(=O)C2CCCN(C(=O)CCCn3cncn3)C2)cc1 (centres undefined) do in these assays?
Arbovirus anti: 5.6; Mtb growth: 5.0%; Mtb betalactam: -1.9; RecA intein inh: -2.3

Results for O=C(CN1CCN(Cc2ccccc2Cl)CC1)N/N=C/C=C\c1ccccc1[N+](=O)[O-] ?
YopH inh: 6.8; Arbovirus anti: -3.5; Mtb growth: -1.8%; Mtb betalactam: -6.4; RecA intein inh: 0.7

What do the screens show for `O=C(Nc1nc(=O)n(C(=O)C2CC2)s1)c1ccccc1`?
YopH inh: -29.2; Arbovirus anti: 3.8; Mtb growth: -5.2%; Mtb betalactam: 1.9; RecA intein inh: 0.9

Results for O=C(c1ccc2c(=O)n(-c3ccccc3)c(=O)[nH]c2c1)N1CCCCC1 ?
YopH inh: 5.6; Arbovirus anti: -6.2; Mtb growth: -5.5%; Mtb betalactam: -1.3; RecA intein inh: -5.0

How did CC(C)N(C(C)C)S(=O)(=O)c1ccc(Cl)nc1 do in these assays?
Arbovirus anti: 7.8; Mtb growth: -5.2%; Mtb betalactam: -4.3; RecA intein inh: 0.9

What do the screens show for `CCCOc1ccc(CCC(=O)N/N=C/c2ccncc2)cc1`?
Mtb growth: -1.4%; Mtb betalactam: -5.1; RecA intein inh: 2.9

What do the screens show for `O=C(c1ccc(Br)o1)N1CCc2ccccc21`?
Arbovirus anti: -9.8; Mtb growth: 1.2%; Mtb betalactam: -2.1; RecA intein inh: 2.2

How did COCCNC(=O)CCn1c(=O)oc2ccccc21 do in these assays?
YopH inh: -16.9; Arbovirus anti: 10.4; Mtb growth: -9.5%; Mtb betalactam: -9.2; RecA intein inh: 2.6

Results for Cc1ccc(S(=O)(=O)NCC(=O)N(CC(=O)NCC2CCCO2)c2ccc(Cl)cc2)cc1 (centres undefined) ?
Mtb betalactam: -2.4; RecA intein inh: 1.6

Results for Cc1ccc(-c2nn3c(=O)c(C)nnc3s2)cc1 ?
YopH inh: -10.2; Arbovirus anti: 4.0; Mtb growth: -2.4%; Mtb betalactam: 1.7; RecA intein inh: 1.4

Results for Cc1cccc(OCCNc2cc(N3CCOCC3)ccc2[N+](=O)[O-])c1 ?
YopH inh: -25.7; Arbovirus anti: -6.1; Mtb growth: 3.2%; Mtb betalactam: 8.9; RecA intein inh: -1.6

Results for Cn1c(SCC(=O)Nc2cccc(F)c2)nnc1-c1cccnc1 ?
YopH inh: -19.4; Arbovirus anti: 2.5; Mtb growth: -0.6%; Mtb betalactam: -6.5; RecA intein inh: -0.3; Arbovirus anti repeat: 8.4

What do the screens show for `CCCCc1cc(=O)oc2cc(OS(C)(=O)=O)ccc12`?
YopH inh: -29.9; Arbovirus anti: -9.1; Mtb growth: -2.2%; Mtb betalactam: -2.8; RecA intein inh: -0.8

How did O=C(NCCNC(=O)c1ccc(-c2ccc(Cl)c(Cl)c2)o1)c1cnccn1 do in these assays?
Mtb betalactam: 72.5; RecA intein inh: 1.1

What do the screens show for `CCOc1ccc(C(=O)NCC(=O)NCC2CCCCC2)cc1OCC`?
Mtb betalactam: 2.7; RecA intein inh: 0.3

How did CC(=O)c1c(O)c2ccccc2n(C(C)C)c1=O do in these assays?
Arbovirus anti: 18.8; Mtb growth: 3.4%; Mtb betalactam: 4.9; RecA intein inh: -2.5

Results for O=C(Cn1c(C(=O)OCCO)cc2ccccc21)c1ccccc1 ?
Mtb betalactam: 0.1; RecA intein inh: -2.0

Results for CCN(CC)C(=O)CSc1nnc(COc2cccc(C)c2)n1C ?
Arbovirus anti: -1.4; Mtb growth: 5.2%; Mtb betalactam: -8.1; RecA intein inh: -5.5

What do the screens show for `Cn1c(=O)c2c(ncn2CC(=O)Nc2ccccc2N2CCOCC2)n(C)c1=O`?
YopH inh: -35.0; Arbovirus anti: 3.4; Mtb growth: -2.8%; Mtb betalactam: 5.0; RecA intein inh: 1.2

What do the screens show for `O=C(N/N=C/c1ccco1)c1cccc(N2Cc3ccccc3C2)c1`?
Arbovirus anti: -4.0; Mtb betalactam: -7.1; RecA intein inh: 6.1

How did CC(=O)N(Cc1nc2sc(C)c(C)c2c(=O)[nH]1)C1CCCC1 do in these assays?
Arbovirus anti: -0.9; Mtb growth: -8.3%; Mtb betalactam: -7.9; RecA intein inh: 5.6

What do the screens show for `O=C(CCc1nnc2ccc(N3CCC4(CC3)OCCO4)nn12)Nc1cc(F)ccc1F`?
Mtb betalactam: 4.3; RecA intein inh: -2.4

How did Cc1cc(C)cc(NC(=O)CSc2nc3c(oc4ccccc43)c(=O)n2-c2ccccc2)c1 do in these assays?
YopH inh: -21.0; Arbovirus anti: -2.5; Mtb growth: 6.7%; Mtb betalactam: 3.5; RecA intein inh: 8.2

What do the screens show for `COc1cc(OC)cc(C(=O)NNC(=S)Nc2ccc(S(N)(=O)=O)cc2)c1`?
Arbovirus anti: 1.3; Mtb growth: 3.2%; Mtb betalactam: -0.4; RecA intein inh: -4.7

How did CCOc1ccc(Cn2c(=O)sc3ccccc32)cc1OC do in these assays?
Mtb growth: 13.2%; Mtb betalactam: -3.7; RecA intein inh: 4.7

Results for N#CC(c1ccncc1)(c1ncc(C(F)(F)F)cc1Cl)N1CCOCC1 (centres undefined) ?
Arbovirus anti: -4.2; Mtb betalactam: -1.2; RecA intein inh: -2.5

How did Cc1ccccc1NC(=O)Cc1nnc(N)s1 do in these assays?
Mtb growth: -9.1%; Mtb betalactam: -8.4; RecA intein inh: 0.1

How did COc1ccc(OC)c(NC(=O)CNC(=O)c2ccc([N+](=O)[O-])cc2)c1 do in these assays?
Arbovirus anti: -0.7; Mtb growth: -4.7%; Mtb betalactam: 17.9; RecA intein inh: -3.4

Results for O=C(COC(=O)C12CC3CC(CC(C3)C1)C2)NCCc1ccccc1 ?
YopH inh: -14.5; Arbovirus anti: 0.5; Mtb growth: 3.7%; Mtb betalactam: -4.8; RecA intein inh: 2.3

What do the screens show for `Cc1nonc1NC(=O)CSc1nc2ccccc2cc1C#N`?
Arbovirus anti: -3.0; Mtb growth: 4.3%; Mtb betalactam: -2.5; RecA intein inh: -4.2

Results for Cn1cc(Br)c(C(=O)n2cc(Br)cn2)n1 ?
Arbovirus anti: 0.0; Mtb growth: 3.9%; Mtb betalactam: 0.7; RecA intein inh: 1.6

What do the screens show for `C=C1CC2C(CCC3(C)C2CCC3(O)C(C)=O)C2(C)CCC(=O)C=C12` (centres undefined)?
Mtb betalactam: 2.1; RecA intein inh: -5.9

What do the screens show for `Cc1cccc2cc(/C=N/NC(=O)CN3CCOCC3)c(Cl)nc12`?
YopH inh: -21.8; Arbovirus anti: 4.1; Mtb betalactam: -6.0; RecA intein inh: -0.6

What do the screens show for `CCn1c(=O)c2c(nc3n2CCCN3CCc2ccc(OC)c(OC)c2)n(C)c1=O`?
Mtb betalactam: 5.6; RecA intein inh: -1.8

Results for O=C1OCC2=C1C(c1ccccc1)CC(=O)N2c1ccccc1 (centres undefined) ?
Arbovirus anti: 3.5; Mtb growth: 0.0%; Mtb betalactam: 3.5; RecA intein inh: 0.5

What do the screens show for `CCOC(=O)C(=O)N/N=C/c1ccc(F)cc1`?
Mtb growth: -9.0%; Mtb betalactam: -2.3; RecA intein inh: 0.1
